Screening results from PubChem BioAssay.
CtBP-E1A inh: blocks the CtBP interaction with E1A. activity change, % (test concentration not listed). AlphaScreen GST-E1A/His-CtBP binding, 1536-well; hits give low values; control for the full effect not named in the record. hit rate 0.49% among 340,000; in the data active means activity change below about -65%; inconclusive means about -30% to -65%; inactive means above about -30%; note: % is set by controls: 0 for no effect and ±100 for the full control effect; compound concentration not given in the record
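GST-E1A and His-tagged CtBP (125 nM each as 5X stock) were preincubated with pin-transferred compound for 2 h at 37 °C in the dark, then glutathione donor and nickel acceptor beads were added for 1 h before AlphaScreen reading.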
Sfp inh: Sfp phosphopantetheinyl transferase inhibition | hit rate 3.5% among 310,000 | Potency, µM, for the others: max response, negative = inhibition, hits mostly inhibitors | AID 1490 | Biochemical Sfp PPTase activity, qHTS | Q9F4F7; active = well fitted inhibition curve with a large enough effect; inconclusive = small, poorly fitted or top-dose-only effect, or another doubt; inactive = no such curve, though single readings can be large or run the other way;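 note: the enzyme is Sfp with the accession as filed and its product quenches rhodamine fluorescence; potency is the fitted concentration of half-maximal effect; 0% = enzyme reaction without inhibitor and -100% = no enzyme wells; top concentration of the series not given in the record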
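Sfp 15 nM + cpd, 15 min RT; start w/ rhodamine-CoA 5 uM, BHQ-2-YbbR 12.5 uM (final); 50 mM Hepes pH 7.6, 10 mM MgCl2, 0.01% NP-40, 0.01% BSA; read 525/598 nm at 0 and 30 min.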
TRPV1 potentiator: human TRPV1 potentiation; potentiation, % at 8.33 µM; AID 540277; TRPV1-expressing cells, Fluo-8 calcium influx, capsaicin EC20 potentiation; host cell line not named in the record; control for the full effect not named in the record; Q8NER1; hit rate 0.02% among 320,000; active means potentiation above 80%; inconclusive means 30% to 80%; inactive means below 30%; note: 0% is about no effect
Target sequence (Q8NER1 whole entry, looked up): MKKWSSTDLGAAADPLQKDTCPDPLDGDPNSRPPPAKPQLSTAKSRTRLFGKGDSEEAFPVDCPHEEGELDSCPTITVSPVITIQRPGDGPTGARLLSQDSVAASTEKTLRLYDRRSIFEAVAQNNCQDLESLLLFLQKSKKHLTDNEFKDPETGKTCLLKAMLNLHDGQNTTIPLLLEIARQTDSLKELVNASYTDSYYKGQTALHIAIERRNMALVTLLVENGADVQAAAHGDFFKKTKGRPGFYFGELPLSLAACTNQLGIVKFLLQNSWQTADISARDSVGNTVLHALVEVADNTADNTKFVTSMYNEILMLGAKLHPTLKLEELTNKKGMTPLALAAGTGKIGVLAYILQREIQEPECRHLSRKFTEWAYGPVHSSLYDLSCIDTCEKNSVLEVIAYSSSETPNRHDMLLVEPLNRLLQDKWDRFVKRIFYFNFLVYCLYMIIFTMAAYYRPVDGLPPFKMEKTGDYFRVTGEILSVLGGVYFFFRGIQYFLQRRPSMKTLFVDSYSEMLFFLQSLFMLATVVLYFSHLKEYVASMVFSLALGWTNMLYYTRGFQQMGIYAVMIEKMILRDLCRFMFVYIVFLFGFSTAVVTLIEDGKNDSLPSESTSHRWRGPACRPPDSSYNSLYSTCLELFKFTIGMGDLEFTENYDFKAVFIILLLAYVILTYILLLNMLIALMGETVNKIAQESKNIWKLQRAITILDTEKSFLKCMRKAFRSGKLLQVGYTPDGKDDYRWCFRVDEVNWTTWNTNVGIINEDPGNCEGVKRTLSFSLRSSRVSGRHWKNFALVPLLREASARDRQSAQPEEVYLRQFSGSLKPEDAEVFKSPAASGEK
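Cells expressing TRPV1 were dye-loaded with Fluo-8 and read kinetically: 10 s baseline, 3 min after compound (agonist portion), then 2 min after EC20 capsaicin (allosteric enhancer portion). Calcium-bound dye fluorescence at 480/520 nm.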
gsp agonist: activates gsp, the McCune-Albright syndrome mutation | hit rate 0.13% among 340,000 | gsp mutant cells, cAMP HTRF, 30 min; control for the full effect not named in the record | Potency, µM (series often up to 76.9 µM), without a hit: top-dose activation (cAMP increase), most hits filed as activators; active = well fitted activation curve with a large enough effect; inconclusive = small, poorly fitted or top-dose-only effect, or another doubt; inactive = no such curve, though single readings can be large or run the other way; cell line not stated here;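 note: phosphodiesterase inhibitor Ro 20-1724 added with compounds to block cAMP breakdown; potency is the fitted concentration of half-maximal effect; nearly all actives have a fitted effect of over 60% in size; about a fifth of the inactives were tested at one dose only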
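Cells in DMEM/10% FBS with G418 were pretreated with compounds in DMSO plus […] (300 uM stock) for 30 min at 37C. cAMP was measured by HTRF (cAMP-d2 plus anti-cAMP antibody-K) after 30 min at room temperature.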
ClpP mod: qHTS Assay for Activators of ClpP | Potency, µM (doses to about 57.5 µM), for inactives: at the highest dose activity change, negative = active | ATP-dependent Clp protease proteolytic subunit (Bacillus subtilis (strain 168)), P80244 | purified B. subtilis ClpP, FRET peptide cleavage, 20 min | hit rate 1.9% among 340,000; active = well fitted falling curve with a large enough effect; inconclusive = small, poorly fitted or top-dose-only effect; inactive = no such curve, though single readings can be large or run the other way; note: potency is the fitted concentration of half-maximal effect; the source files actives as falling curves though it sought activators and does not explain the sign; nearly all actives have a fitted effect of over 65% in size; many hits overshoot -100%
Target sequence (P80244 whole entry, looked up): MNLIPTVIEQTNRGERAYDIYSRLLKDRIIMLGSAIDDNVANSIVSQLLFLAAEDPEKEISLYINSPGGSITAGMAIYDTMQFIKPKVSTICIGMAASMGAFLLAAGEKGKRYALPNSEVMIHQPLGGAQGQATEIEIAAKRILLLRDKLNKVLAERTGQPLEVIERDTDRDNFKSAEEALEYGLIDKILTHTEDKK
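Purified B. subtilis ClpP, 10 microg/mL final in Tris/HCl pH8 with KCl, BSA, glycerol and Tween-20, cleaved an Abz/nitrotyrosine-quenched decapeptide. Fluorescence (ex 320, em 430) was read at 0 and 20 min at room temperature. Delta was normalized to 5.8 microM ADEP and DMSO/no-enzyme controls.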
gsp antag: antagonists of gsp mutant (McCune-Albright syndrome); gsp-mutant cells, cAMP HTRF, 30 min; control for the full effect not named in the record; Potency, µM (doses to about 76.9 µM), for the others: top-dose activity change, negative = inhibition, most hits filed as inhibitors; hit rate 0.4% among 340,000; AID 624288; active = falling curve of any shape with a large fitted effect; inconclusive = falling curve, mostly with a smaller effect; inactive = flat or rising curve; cell line not stated here;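 note: intracellular cAMP measured with PDE inhibitor Ro 20-1724 present during compound exposure; potency is the fitted concentration of half-maximal effect; % is set by controls: 0 for no effect and ±100 for the full control effect; nearly all actives have a fitted effect of over 65% in size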
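HTRF cAMP read-out (cAMP-d2 plus anti-cAMP antibody-K in lysis buffer, 30 min RT). Before lysis, cells are exposed to compounds with […] for 30 min at 37C in DPBS containing Ca/Mg, BSA and Tween 20.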
Menin-MLL FL inh: menin-MLL binding inhibition, fluorescein peptide | 290,000 tested, under 10 active | Fluorescence polarization, fluorescein-MLL peptide displacement from menin | AID 1766 | FP activity change, % at 61.4 µM; inconclusive = falling polarisation curve, or a change in total fluorescence; inactive = total fluorescence flat and polarisation flat or rising; no compound was filed as active; the % refers to the polarisation; negative = inhibition;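 note: % of control where 0% means no effect; inhibitors lower the polarisation; unlabelled MLL peptide was the positive control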
Starred values were filed as active, the others as inactive; ? = inconclusive; · = no result given; [ ] = another dose, or the depositor's remark.

SMILES	CtBP-E1A inh	Sfp inh	TRPV1 potentiator	gsp agonist	ClpP mod	gsp antag	Menin-MLL FL inh
CC(C)C(NC(=O)/C=C/c1cccc([N+](=O)[O-])c1)C(C)C	-8	5%	5	25%	-2.1%	-10%	·
CCCc1cc(-c2ccc3c(c2)COc2c4ccccc4nn2-3)on1	3	·	0	·	0.4%	-21%	·
COc1ccc(C(=O)Nc2ccc(Cl)cc2C(=O)NCc2ccco2)cc1OC	-4	?	1	6%	-15%	-20%	-2.0
COc1cc(CNC2CCCc3ccccc32)cc(OC)c1OC (stereo not given)	11	50µM*	1	4%[15.4 µM]	-11%	-5%	-5.0
CC1CC(C)CN(C(=O)CCNS(=O)(=O)c2cccs2)C1 (stereo not given)	5	15%	-3	-20%	0.6%	7%	5.8
CN(C(=O)COC(=O)c1ccc([N+](=O)[O-])cc1)c1ccccc1	-5	16%	-2	-15%	·	-7%	2.2
CC(C)C(=O)Nc1nc(-c2ccc3c(c2)CCN3C(=O)C2CC2)cs1	-6	8%	?	-5%[15.4 µM]	·	6%	5.8
Cn1c(Nn2cnnc2)nc2ccccc21	0	18%	-8	-13%	1.6%	2%	0.4
CN(Cc1ccccc1)C(=O)c1cccc(NC(=O)Cc2ccc(NC(=O)C3CCN(C(=O)c4ccccc4)CC3)cc2)c1	2	·	·	·	0.5%	-6%	·
C[C@H]1CN([C@@H](C)CO)C(=O)CCCn2cc(nn2)CO[C@@H]1CN(C)C(=O)Nc1ccc2c(c1)OCO2	2	·	·	-173%[inhibitor]	-0.5%	·	·
COC(=O)C(Cc1c[nH]c2ccccc12)NC(=O)c1cccc(S(=O)(=O)N2CCCCC2)c1 (stereo not given)	-24	·	23	12%	2.5%	-17%	·
CC(C)Oc1ccc(CCc2nnc(SC(C)C(=O)O)n2-c2ccccc2)cc1 (stereo not given)	3	12%	-1	6%[15.4 µM]	·	4%	1.1
COc1ccc(-c2c(C)nc(N)nc2-c2ccc(OCc3ccc(C)cc3)cc2O)cc1OC	-8	2%	12	-7%	-3.9%	5%	2.2
COc1nccnc1NS(=O)(=O)c1ccc(NC(=S)NC(=O)c2ccccc2)cc1	-17	-4%	18	-3%	0.9%	-20%	1.6
COc1ccc(/C=C/C(=O)c2ccc3c4c(cccc24)CC3)cc1OC	-2	-21%	5	-19%	-1.4%	-10%	5.4
O=S(=O)(c1ccc(OCc2nc3ccccc3s2)c(Cl)c1)N1CCOCC1	6	4%	2	0%	0.1%	10%	0.3
Cc1nc(-c2ccc(S(=O)(=O)NCc3ccccn3)s2)cs1	·	-22%	-9	-2%	-27%	-9%	1.3
N/C(CCN1CCCCC1)=N/O	3	18%	14	-4%	-1.2%	12%	5.4
Cc1cc(C(=O)NCC(=O)OCC(=O)N(C)C2CCCCC2)ccc1[N+](=O)[O-]	-6	-7%	0	?	·	11%	1.4
COc1cc(C(=O)OC(C)C(=O)NCC2CCCCC2)cc(NC(=O)c2ccco2)c1OC (stereo not given)	-1	-27%	-6	12%	76%	9%	0.0
CCc1ccc(S(=O)(=O)N2CCN(c3ncccn3)CC2)cc1	2	8%	-8	-44%[inhibitor]	·	-7%	-0.3
Cc1nc2scc(C)n2c(=O)c1S(=O)(=O)N1CCN(c2ccccn2)CC1	-1	9%	-4	43%[15.4 µM]	·	18%	-1.5
CCOC(=O)c1c(NC(=O)C2C3C=CC(C3)C2(C)C(=O)O)sc2c1CCCC2 (stereo not given)	-3	5%	3	3%	?	0%	6.7
CCC(=O)Nc1ccc(C(=O)n2nc(C)cc2C)cc1	5	3%	-11	-34%	2.3%	-3%	-1.7
Cc1cccc(OCc2nnc(SCC(=O)Nc3nccs3)o2)c1	-93*	30%	6	-25%	1.6%	-21%	0.8
CC(C)CN(c1ccccc1)S(=O)(=O)c1nnc(NC(=O)C(C)C)s1	·	13%	27	10%	1.6%	7%	-4.3
CCOC(=O)Cn1c(C)[n+](CC(=O)c2ccccc2)c2ccccc21	-9	10%	-3	14%	·	13%	-1.3
COc1ccc(-c2cc(C(=O)NCCN3CCOCC3)c3cc(C(C)C)ccc3n2)cc1	2	10%	-3	?	3.2%	-6%	-3.1
COc1ccc(Cl)cc1S(=O)(=O)N(C)CC(=O)NCCCn1ccnc1	21	10%	8	-2%[15.4 µM]	0.9%	13%	·
COc1cccc(/C=N/NC(=O)C(=O)N2CCCC2)c1	4	·	·	-5%	0.4%	-12%	·
O=C(COC(=O)COc1ccccc1)NC1CCS(=O)(=O)C1 (stereo not given)	19	·	·	-40%	·	-6%	·
CC(=O)Nc1ccc(S(=O)(=O)c2ccnc3cc(Cl)ccc23)cc1	-18	·	·	27%	0.2%	·	·
CCOc1ccc(NC(=O)COC(=O)C2CC2C)cc1 (stereo not given)	9	·	·	-2%	·	8%	·
COc1ccc(S(=O)(=O)N(C)CC(=O)NCCCn2ccnc2)cc1Cl	7	15%	18	-5%	·	12%	·
Cc1ccc(C(=O)CC2(O)C(=O)N(Cc3ccccc3)c3ccccc32)o1 (stereo not given)	-9	25%	22	-52%[inhibitor]	-3.4%	6%	1.0
CC1(C(=O)N2CCOCC2)CCCCC1	·	1%	-3	-9%	0.3%	5%	-0.7
CC(C)OC(=O)CSc1nc2c(c(C3CC=CCC3)c1C#N)CCC2 (stereo not given)	48	-17%	5	-7%	-1.3%	-13%	-3.2
Cc1ccc(C2=NS(=O)(=O)N(C)C(C(=O)N(C)C3CCCCC3)=C2)cc1	-2	3%	23	-17%	-6.1%	-15%	-0.4
O=C(O)CC1S/C(=N/N=C2CCCCC2)N(c2ccccc2)C1=O (stereo not given)	-18	-28%	-16	6%	-1.6%	10%	·
CCOC(=O)N1CCN(c2cc3nccnc3cc2F)CC1	-12	21%	-7	-4%	-1.7%	0%	4.0

Rewritten with bars between the fields: part of the list above
Structure | CtBP-E1A inh | Sfp inh | TRPV1 potentiator | gsp agonist | ClpP mod | gsp antag | Menin-MLL FL inh
CC(=O)Nc1ccc(S(=O)(=O)c2ccnc3cc(Cl)ccc23)cc1 | -18 | · | · | 27% | 0.2% | · | ·
CC(C)OC(=O)CSc1nc2c(c(C3CC=CCC3)c1C#N)CCC2 (stereo not given) | 48 | -17% | 5 | -7% | -1.3% | -13% | -3.2
Cc1ccc(C2=NS(=O)(=O)N(C)C(C(=O)N(C)C3CCCCC3)=C2)cc1 | -2 | 3% | 23 | -17% | -6.1% | -15% | -0.4
CC1(C(=O)N2CCOCC2)CCCCC1 | · | 1% | -3 | -9% | 0.3% | 5% | -0.7

(next part)
SMILES	CtBP-E1A inh	Sfp inh	TRPV1 potentiator	gsp agonist	ClpP mod	gsp antag	Menin-MLL FL inh
COc1cc(/C=C/C(=O)c2ccc(NS(=O)(=O)c3ccc(C)cc3)cc2)ccc1OC(F)F	3	4%	26	3%	-2.7%	?	9.1
O=C(COC(=O)COc1ccc(Br)cc1)NCCC1=CCCCC1	-27	15%	0	4%[15.4 µM]	2.2%	-6%	2.8
CC(=O)Nc1nonc1-c1ccccc1	13	-3%	7	-28%	-0.1%	16%	-1.4
CN(CC(=O)NC(=O)NCc1ccco1)Cc1nc2ccccc2c(=O)[nH]1	-15	89µM*	6	11%	-0.6%	0%	7.5
Cc1ccc(-c2n[nH]c(=S)n2/N=C/c2ccc(C(=O)O)cc2)cc1	-10	?	8	18%	-2.2%	-10%	0.6
CCCCC(NS(=O)(=O)c1ccc(OC)cc1)C(=O)O (stereo not given)	-2	-4%	?	?	1.1%	4%	-0.7
Cc1c(C(=O)NCc2ccco2)oc2c(F)cccc12	·	·	3	-6%	-6.6%	-7%	·
CC(=O)c1c(C)[nH]c(C(=O)COC(=O)c2cccnc2Cl)c1C	-12	·	-6	-1%[15.4 µM]	0.8%	-5%	·
CC1CCc2c(sc3nc(CN4CCOCC4)nc(NS(=O)(=O)c4cccc([N+](=O)[O-])c4)c23)C1 (stereo not given)	3	?	7	-7%[15.4 µM]	0.4%	-29%	15
COc1ccc(S(=O)(=O)Nc2ccccc2N2CCOCC2)cc1[N+](=O)[O-]	-10	?	-7	16%[15.4 µM]	·	4%	3.3
Cc1ccc(-c2nnc(Nc3ccc(O)cc3)c3ccccc23)cc1S(=O)(=O)NCCO	·	5%	12	-20%	-0.7%	-6%	-4.7
C=CCn1c(-c2cc(Cl)ccc2OC)n[nH]c1=S	-1	0%	7	?	-1.6%	-4%	-1.7
Cc1ccc(N2C(=O)C3C(C2=O)N2CCCN2C3c2ccccc2)cc1C (stereo not given)	2	20%	-2	2%[15.4 µM]	·	-6%	0.4
CCN(CC)S(=O)(=O)c1ccc(NC(=O)c2ccc(N(C)S(C)(=O)=O)cc2)cc1	-13	10%	-28	?	-0.6%	-3%	3.9
CCCCCCNC(=O)CC(NS(=O)(=O)c1ccc(NC(C)=O)cc1)C(C)C (stereo not given)	37	9%	-6	?	2.7%	-6%	-0.8
COc1cccc(-n2c(CN3CCN(c4cccc(C)c4)C(C)C3)nc3ccc([N+](=O)[O-])cc3c2=O)c1 (stereo not given)	-22	-2%	-7	22%	-7.9%	2%	2.8
COc1ccc(N2C(=O)N(Cc3ccc(C)cc3)c3ccccc3S2(=O)=O)cc1	-5	16%	1	-8%	-1.4%	5%	-6.1
COc1ccc(N/N=C(/N=Nc2nc(C)cc(=O)[nH]2)c2ccccc2)cc1	-27	5%	7	-1%	-1.9%	-30%	-0.2
CCOc1ccc(-c2nnn(CC(=O)NCc3cccs3)n2)cc1	-1	2%	-19	-58%[inhibitor]	-2.6%	6%	-0.3
O=C(NCCc1csc(-c2ccccc2)n1)c1ccco1	-3	1%	-12	?	-1.9%	1%	-2.4
CCn1c(-c2ccccc2)c(C(=O)CCl)c2ccccc21	·	-2%	0	9%	-0.4%	-5%	-2.4
CC(=O)NCCNC(=O)c1ccc(-n2c(C)ccc2C)cc1	3	5%	-6	-26%	·	1%	-4.1
CCOC(=O)CSC1=C(C#N)C(c2ccco2)C(C(=O)OCc2ccccc2)=C(C)N1 (stereo not given)	10	?	-7	0%	-9.5%	-22%	-0.7
Cc1cc(NC(=O)c2cccs2)no1	7	3%	-2	11%[15.4 µM]	·	4%	3.8
